A1 inh – inhibitors of the anti-apoptotic protein A1, read as caspase activation; MEF A1-2A-BIM cells, Caspase-Glo 3/7 luminescence, 3 h; percent of clofoctol response, vehicle zero; caspase activation, % (no concentration beside the values); 330,000 compounds, 0.066% hits;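 active means over half of replicate activation scores above 10%, or exactly half above 10 with the replicate mean above 10; inconclusive means replicate mean below 10 yet half the replicates above 10; inactive means over half of replicates below 10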;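 further: wells of about 30 µL received 50 nL stock; many hits fall short of the cut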
UCH37 DUB inh – inhibitors of human deubiquitinating enzyme UCH37; purified proteasome/UCH37, Ub-AMC cleavage fluorescence; AID 588478; 330,000 compounds, 0.33% hits; inhibition, % (concentration not given with the values);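 active means mean of two replicates above 20%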;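 further: 0% = compound-free wells with enzyme and 100% = wells lacking proteasome; stock transfer was 100 nL into about 20 µL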
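Schedule: 30 min plus 25 min, room temperature / Material: human UCH37 within purified proteasomes / Technique: AMC fluorescence intensity at 355/460 nm / Buffer or medium: pH 7.4 Tris-HCl (50 mM) with ovalbumin, ATP-MgCl2, DTT / Controls: wells without proteasome as full block, compound-free enzyme plus substrate as uninhibited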
Beta2AR agonist – agonists of human beta-2 adrenergic receptor inducing internalization | P07550 | Am2.2-beta2AR cells, FAP receptor internalization, flow cytometry; reference of the scale not given here | response, % (concentration not given with the values) | 340,000 compounds, 0.43% hits | AID 504454;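 active means response above a set limit, near 3 SD of response in nonfluorescent compounds, cut at about 42% in these data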;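 further: stock transfer was 100 nL into about 11 µL; a reference agonist was the positive control; negative values mostly stem from fluorescent compounds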
T cruzi repl – T. cruzi replication inhibition; T. cruzi beta-gal in NIH3T3, luminescence, 90 h; inhibition, % (no concentration beside the values); 300,000 compounds, 1.4% hits;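 active means mean inhibition across valid replicates above about 55%, limit read from the data; inconclusive means mean below that limit but half or more replicates reach it; inactive means mean below it, under half of replicates reach it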;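 further: signal also drops with host cell toxicity which is not excluded here; 0% = plate median of DMSO wells and 100% = zero luminescence signal; higher percent means less beta-gal luminescence so fewer parasites; stock transfer was 50 nL into about 50 µL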
Calb FLC – C. albicans growth modulation with fluconazole | C. albicans CaCi-2 (fluconazole-resistant clinical isolate) + fluconazole, Alamar Blue growth, 48 h | growth inhibition, % (test concentration not listed) | 300,000 compounds, 0.57% hits | AID 1979;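 active means most replicates above 75%; inconclusive means exactly half above 75%; inactive means most below 75%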;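 further: all wells also contain fluconazole at 8 µg/ml as a sub-toxic cotreatment; 0% = median of DMSO wells and 100% = median of geldanamycin control wells; wells of about 8 µL received 7.5 nL stock; the first replicate is given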
Beta apoptosis – beta cell apoptosis inhibition; protection from apoptosis, % (concentration not given with the values); INS-1E cytokine-induced death, ATP luminescence, 48 h; percent of positive-control rescue, neutral wells zero; 300,000 compounds, 0.8% hits; AID 435005;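 active means all replicates at 75% or more, or half of them and the mean; inconclusive means half reach 75% but not the mean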;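 further: 0% = cytokine-treated negative control wells and 100% = positive control rescue; higher means more ATP so stronger rescue from cytokine killing; wells of about 40 µL received 100 nL stock; the first replicate is given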
LANA-H2B inh – blocks KSHV LANA binding to histone H2A/H2B; Q9QR71; cell-free LANA-H2A/H2B peptide, fluorescence polarization; inhibition, % (no concentration beside the values); 320,000 compounds, 0.6% hits; AID 2629; in the data active means inhibition mostly above about 10%, no sharp cut-off; inactive means mostly below about 6.7%;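 further: stock transfer was 7.5 nL into about 10 µL; 0% = median of vehicle wells and 100% = median of positive control wells; one replicate is shown; the record names a cut of 25% in any replicate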
Target sequence (Q9QR71 whole entry, looked up): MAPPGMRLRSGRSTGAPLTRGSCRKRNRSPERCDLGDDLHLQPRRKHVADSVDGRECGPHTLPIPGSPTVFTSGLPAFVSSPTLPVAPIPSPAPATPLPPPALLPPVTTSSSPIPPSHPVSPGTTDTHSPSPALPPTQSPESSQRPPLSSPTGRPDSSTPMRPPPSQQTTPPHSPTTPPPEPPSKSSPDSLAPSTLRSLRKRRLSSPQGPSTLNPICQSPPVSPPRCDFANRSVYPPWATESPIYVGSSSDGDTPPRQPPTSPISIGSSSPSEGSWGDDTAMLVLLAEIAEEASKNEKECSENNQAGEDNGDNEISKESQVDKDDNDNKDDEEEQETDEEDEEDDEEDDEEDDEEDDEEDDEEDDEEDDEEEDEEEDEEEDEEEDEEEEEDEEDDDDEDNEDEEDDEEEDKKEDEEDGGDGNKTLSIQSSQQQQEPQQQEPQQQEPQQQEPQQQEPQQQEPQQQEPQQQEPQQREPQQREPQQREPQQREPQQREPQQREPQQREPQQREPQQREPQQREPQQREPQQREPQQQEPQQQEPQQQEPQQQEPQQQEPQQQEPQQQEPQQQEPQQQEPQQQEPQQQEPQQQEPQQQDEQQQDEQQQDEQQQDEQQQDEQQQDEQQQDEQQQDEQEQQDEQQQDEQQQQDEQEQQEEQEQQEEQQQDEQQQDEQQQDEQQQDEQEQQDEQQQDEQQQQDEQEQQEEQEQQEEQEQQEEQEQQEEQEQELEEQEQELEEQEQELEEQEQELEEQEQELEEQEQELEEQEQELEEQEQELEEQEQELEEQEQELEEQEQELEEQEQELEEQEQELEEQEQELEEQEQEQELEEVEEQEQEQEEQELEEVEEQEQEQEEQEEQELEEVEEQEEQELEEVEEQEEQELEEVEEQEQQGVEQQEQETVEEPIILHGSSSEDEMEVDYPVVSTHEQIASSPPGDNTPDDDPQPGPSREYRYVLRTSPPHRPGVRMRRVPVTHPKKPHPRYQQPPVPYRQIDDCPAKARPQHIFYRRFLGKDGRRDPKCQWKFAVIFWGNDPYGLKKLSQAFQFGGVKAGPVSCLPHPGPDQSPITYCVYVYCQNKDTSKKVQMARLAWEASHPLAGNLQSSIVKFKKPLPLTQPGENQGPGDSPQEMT
RanGTP-Imp inh – inhibitors of RanGTP-importin-beta interaction, primary screen, biochemical, FRET, CFP-Ran, YFP-importin-beta, homogeneous; 300,000 compounds, 1.1% hits; AID 2216; cell-free CFP-Ran/YFP-importin-beta FRET ratio; inhibition, % (no concentration beside the values);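 active means most replicates above 15%; inconclusive means exactly half above 15%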;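 further: 0% = DMSO wells and 100% = Ran loaded with GDP instead of GTP; wells of about 40 µL received 100 nL stock; the first replicate is given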
The depositor's hits bear a star; i = inactive; ? = inconclusive; · = no result given. Not a hit list; any-hit rate near 4.3%.

Start of the listing, in advance (11 entries):
#	Compound	A1 inh	UCH37 DUB inh	Beta2AR agonist	T cruzi repl	Calb FLC	Beta apoptosis	LANA-H2B inh	RanGTP-Imp inh
1	COc1ccc(/C=N/NC2=NCCCCC2)cc1	1.8	·	-1	-24	-1	·	3.3	1.3
2	COCCN1C(=O)/C(=C/c2ccc(N3CCCC3)cc2)SC1=S	-0.9	5.6	i	-9	·	10	-9.0	·
3	Cc1cc(NC(=S)N(Cc2ccc(Cl)cc2)Cc2ccc(C(=O)O)cc2)ccc1Cl	-0.6	-2.4	8	7	17	-2	-2.7	-2.4
4	COCCn1c(=S)[nH]c2ccccc21	-0.7	1.4	-5	-13	-2	-2	1.1	-6.8
5	COc1ccc(OC)c(C2=NS(=O)(=O)N(C)C(C(=O)NCc3ccco3)=C2)c1	1.0	2.0	0	3	12	-2	0.7	-1.0
6	Cn1c(=O)n(Cc2ccccc2)c(=O)c2c1nc1n2CCN1Cc1ccco1	-0.4	3.0	-1	-10	6	-3	0.2	-3.7
7	COc1cc(/C=N/Nc2nc(-c3ccc(S(=O)(=O)N(C)C)cc3)cs2)ccc1O	-0.8	·	23	-1	-6	7	0.8	5.3
8	CCN1CCN(C(=O)CSc2nc(N)cc(N)n2)CC1	0.6	-1.3	-7	-7	-4	0	8.6	2.1
9	Cc1ccccc1NC(=O)CN1C(=O)NC(C)(CCc2ccccc2)C1=O (stereo not given)	1.2	-0.9	3	-5	?	1	4.0	4.6
10	CSc1ccccc1NC(=O)CCc1ccccc1	-0.9	5.3	-1	-11	-9	4	2.4	-2.6
11	CCc1nnc(SCC(=O)Nc2nnc(C)s2)n1CC1CCCO1 (stereo not given)	-0.2	2.2	0	-1	-4	-2	0.1	3.1

Results, previewed entries included:
#	Compound	A1 inh	UCH37 DUB inh	Beta2AR agonist	T cruzi repl	Calb FLC	Beta apoptosis	LANA-H2B inh	RanGTP-Imp inh
1	COc1ccc(/C=N/NC2=NCCCCC2)cc1	1.8	·	-1	-24	-1	·	3.3	1.3
2	COCCN1C(=O)/C(=C/c2ccc(N3CCCC3)cc2)SC1=S	-0.9	5.6	i	-9	·	10	-9.0	·
3	Cc1cc(NC(=S)N(Cc2ccc(Cl)cc2)Cc2ccc(C(=O)O)cc2)ccc1Cl	-0.6	-2.4	8	7	17	-2	-2.7	-2.4
4	COCCn1c(=S)[nH]c2ccccc21	-0.7	1.4	-5	-13	-2	-2	1.1	-6.8
5	COc1ccc(OC)c(C2=NS(=O)(=O)N(C)C(C(=O)NCc3ccco3)=C2)c1	1.0	2.0	0	3	12	-2	0.7	-1.0
6	Cn1c(=O)n(Cc2ccccc2)c(=O)c2c1nc1n2CCN1Cc1ccco1	-0.4	3.0	-1	-10	6	-3	0.2	-3.7
7	COc1cc(/C=N/Nc2nc(-c3ccc(S(=O)(=O)N(C)C)cc3)cs2)ccc1O	-0.8	·	23	-1	-6	7	0.8	5.3
8	CCN1CCN(C(=O)CSc2nc(N)cc(N)n2)CC1	0.6	-1.3	-7	-7	-4	0	8.6	2.1
9	Cc1ccccc1NC(=O)CN1C(=O)NC(C)(CCc2ccccc2)C1=O (stereo not given)	1.2	-0.9	3	-5	?	1	4.0	4.6
10	CSc1ccccc1NC(=O)CCc1ccccc1	-0.9	5.3	-1	-11	-9	4	2.4	-2.6
11	CCc1nnc(SCC(=O)Nc2nnc(C)s2)n1CC1CCCO1 (stereo not given)	-0.2	2.2	0	-1	-4	-2	0.1	3.1
12	CCOC(=O)c1c(NC(=O)CN2CCCc3ccccc32)sc(C)c1C	-0.2	4.8	4	22	-3	-7	-0.1	10
13	NC(=O)C1(N2CCCCC2)CCN(C(=O)c2ccccc2)CC1	-0.3	3.8	5	-7	-9	-6	6.8	4.4
14	COC(=O)c1cc(Cl)cc2c(CCO)c[nH]c12	0.0	-1.8	-3	·	·	-8	-7.3	·
15	CC(=O)c1cccc(NC(=O)Nc2ccc(C(=O)N3CCOCC3)cc2)c1	-0.4	4.3	2	-11	-7	-2	-9.3	1.1
16	Cc1ccc(C2(C)NC(=O)N(CC(=O)N3CCN(S(=O)(=O)c4ccc(Cl)s4)CC3)C2=O)cc1 (stereo not given)	0.0	0.8	5	5	5	-2	-3.6	1.5
17	O=C(COC(=O)c1ccc2ccccc2c1O)NCc1ccccc1	-0.6	-42	-3	·	·	1	-0.7	·
18	CC(=O)Nc1ccc(NC(=O)c2ccc(S(=O)(=O)N(C)c3ccccc3)cc2)cc1	0.3	-3.0	-1	·	·	-4	4.3	·
19	O=C(Nc1ccc(N2CCN(C(=O)c3ccccc3)CC2)cc1)c1ccc(Br)o1	-0.6	-2.7	1	6	·	39	1.5	1.6
20	O=C(COC(=O)c1c(F)cccc1F)Nc1ccc(N2CCCCC2)cc1	1.1	1.1	1	·	·	-5	-3.5	·
21	COc1ccccc1/C=N/NC(=O)C(=O)NCc1cccnc1	0.2	·	23	-8	1	-4	0.5	-3.2
22	COc1cccc(NC(=O)C2CCN(C(=O)NC3CCCCC3)CC2)c1	0.1	1.8	-6	-7	0	-4	-6.8	-4.3
23	COc1ccccc1-c1nnc(C2CCN(S(=O)(=O)c3cccc([N+](=O)[O-])c3)CC2)o1	0.9	-0.3	6	17	7	5	-3.4	4.4
24	COc1ccc(-c2nc(-c3ccccc3)nc(N3CCN(C)CC3)c2C#N)cc1	-0.9	-1.9	29	38	0	·	-3.0	0.0
25	O=C(Nc1ccccc1)C(Cl)C(=O)c1ccccc1 (stereo not given)	-0.8	1.7	6	-4	5	2	-5.2	6.4
26	CCCNS(=O)(=O)c1ccc(C(=O)NCC2CCCO2)cc1 (stereo not given)	-0.6	0.4	2	-11	-3	·	-3.1	-1.0
27	COc1ccc(-n2ncc3c(=O)n(CC(=O)Nc4ccc5c(c4)OCCO5)cnc32)cc1	1.0	-41	-2	-9	2	6	-4.6	1.6
28	COc1cccc(C2NC(=O)NC(C)=C2C(=O)Nc2ccc(C)cc2)c1OC (stereo not given)	0.0	3.3	-1	-10	2	4	6.3	-3.3
29	COc1ccccc1CNc1nc2ccccc2n1CCN1CCCCC1	-0.6	2.8	-9	27	-38	·	-0.7	-0.2
30	Cc1nnc(SCC(=O)Nc2ccc([N+](=O)[O-])cc2)n1C	0.5	7.4	-8	4	29	1	-2.8	0.4
31	O=C(COc1nncc2ccccc12)Nc1ccc(F)c(F)c1	-0.5	2.6	-13	9	-16	-1	1.0	0.9
32	C=CCc1cccc(/C=N/NC(=O)c2ccc3nc[nH]c3c2)c1O	0.2	·	12	-1	21	84*	1.2	1.0
33	CC1CN(C(=O)C2(C)CC2(Br)Br)CC(C)O1 (stereo not given)	0.6	-0.2	0	-11	3	0	·	-4.4
34	CC(=O)N1CCc2cc(S(=O)(=O)NC(Cc3ccccc3)C(=O)NC3CCCCCC3)ccc21 (stereo not given)	-0.6	0.5	-9	-24	1	3	-5.8	-3.8
35	C/C(=C\c1ccccc1)C(=O)NCCc1ccccc1	-1.4	1.7	-3	7	-16	-5	-4.7	0.0
36	CC/C(=N\NC(=O)CCC(=O)NCc1ccccc1)c1ccc(O)cc1	-0.4	·	6	-8	22	4	-8.6	-0.6
37	CCOC(=O)c1cc(-c2ccc(F)cc2)n(CC(=O)NC(C)CC)c1C (stereo not given)	-0.9	7.6	2	-5	10	1	-1.4	?
38	CCOc1ccc2oc(C(=O)NC(C)(C)CC)c(C)c2c1	0.2	-6.3	-12	0	26	4	-3.7	·
39	CCOc1ccc(-c2csc(NNC3=NCCCCC3)n2)cc1	0.2	2.8	-6	53	-17	-7	4.3	0.5
40	Cc1c(C(C)(C)C)sc(=NC(=O)c2ccccc2O)n1C	-9.5	-141	-20	10	5	8	1.1	5.2
41	CCCN(CCC)CCCOC(=O)c1ccc(Cl)cc1Cl	-0.7	4.7	4	-15	-27	·	-2.2	0.7
42	Cc1noc(C)c1S(=O)(=O)N1CCN(C(c2ccccc2)c2ccc(Cl)cc2)CC1 (stereo not given)	-0.9	2.0	8	50	0	8	4.1	0.3
43	C=CCNC(=O)c1onc(CSc2ccccc2CC)c1C(=O)O	-1.1	3.1	-3	-1	-6	-8	1.1	2.0
44	CCOc1ccc(S(=O)(=O)N2CCN(C(=O)COc3ccc(Br)cc3)CC2)cc1	-0.4	1.6	-3	·	·	6	4.9	·
45	Cc1ccc(S(=O)(=O)N2CCN(C(=O)COC(=O)CCOc3ccccc3)CC2)c(C)c1	-0.2	0.2	-3	·	·	-3	-1.3	·
46	COc1ccccc1C(=O)NCCC(=O)N1CC=C(c2ccccc2)CC1	-0.4	1.2	-5	-7	2	-2	-2.1	6.5
47	Cc1ccc(CN(Cc2cc3cccc(C)c3[nH]c2=O)C(=O)N(C)C)cc1	0.2	1.9	-6	5	-6	-2	-5.5	4.0
48	Clc1ccc(Nc2cc(-c3ccccc3)nc3ncnn23)cc1	0.0	0.1	-7	18	3	3	-2.8	-1.4
49	Cc1noc(NS(=O)(=O)c2ccc(NC(=O)CSc3nc4ccccc4[nH]3)cc2)c1C	0.1	1.2	-3	-22	31	-6	2.0	5.0
50	CCOc1ccc(N/C(N)=N/c2nc(C)c(C)c(=O)[nH]2)cc1	0.7	4.9	-5	-24	·	-6	-6.1	-0.7
51	O=C(COC(=O)CSCC(=O)N1CCCCC1)NCc1ccc(F)cc1	-0.1	4.2	0	-6	-5	-12	2.8	-1.1
52	Cc1ccc(S(=O)(=O)N(CC(=O)N2CCN(c3ccc(F)cc3)CC2)C2CCCCC2)cc1	0.0	3.5	4	24	2	1	4.4	-0.5
53	CCCCCNC(=O)c1ccc2c(=O)n(CC3CCCO3)c(=O)[nH]c2c1 (stereo not given)	?	-11	-5	-7	1	-1	-0.4	6.3
54	O=C(O)C[C@H]1c2ccccc2S(=O)(=O)N1c1ccccc1	1.0	-0.2	0	-11	-9	2	-6.0	0.4
55	Cc1cc(C)nc(SCNC(=O)c2ccc(Cl)cc2)n1	-0.7	4.1	-4	-1	5	-5	1.9	5.6
56	O=C(CCNC(=O)C1CCN(S(=O)(=O)c2ccccc2)CC1)NCc1cccc(C(F)(F)F)c1	-0.5	1.3	4	15	-6	·	-4.7	3.0
